GALR2 agonist: GALR2 (human) receptor agonism | O43603 | GALR2-expressing cells, agonist activation read-out | activation, %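 (tested at 5 µM)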 | 0.48% of 140,000 active | AID 803;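 active = above mean plus 3 SD of all compounds, about 5% in these data, not always enough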;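 note: 0% = vehicle buffer wells and 100% = reference agonist at full effect; tested in CHO reporter cells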
Target sequence (O43603 whole entry, looked up): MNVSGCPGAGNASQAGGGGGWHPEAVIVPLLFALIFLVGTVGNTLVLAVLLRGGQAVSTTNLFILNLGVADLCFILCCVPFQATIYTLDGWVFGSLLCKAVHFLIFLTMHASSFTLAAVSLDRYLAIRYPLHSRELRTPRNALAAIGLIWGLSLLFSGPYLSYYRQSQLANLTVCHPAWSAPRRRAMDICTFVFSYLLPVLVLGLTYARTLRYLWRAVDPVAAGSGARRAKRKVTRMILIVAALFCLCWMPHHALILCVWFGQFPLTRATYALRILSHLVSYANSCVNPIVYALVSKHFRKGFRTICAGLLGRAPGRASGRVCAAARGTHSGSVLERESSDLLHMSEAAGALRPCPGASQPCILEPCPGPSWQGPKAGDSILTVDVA
RGS16-Gao: modulates binding between human RGS16 and Galphao; O15492+P09471; bead-based flow cytometry RGS16-Galphao binding, fluorescence; actives lie on both sides; binding response (% of control), % at 10 µM; 0.38% of 220,000 active; AID 1441;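 active = below 25% or above 175%, edge rows of some plates excepted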;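 note: Galphao activated by GDP with aluminum fluoride before binding; 100% = wells without compound and 0% = beads without RGS; some results beyond the cut were filed as inactive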
Target sequence (O15492 whole entry, looked up): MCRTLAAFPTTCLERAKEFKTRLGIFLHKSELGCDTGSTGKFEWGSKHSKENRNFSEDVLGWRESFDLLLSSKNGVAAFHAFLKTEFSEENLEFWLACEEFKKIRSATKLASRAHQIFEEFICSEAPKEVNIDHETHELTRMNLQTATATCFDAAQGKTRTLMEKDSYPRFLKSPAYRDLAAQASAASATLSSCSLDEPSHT
Target sequence (P09471 whole entry, looked up): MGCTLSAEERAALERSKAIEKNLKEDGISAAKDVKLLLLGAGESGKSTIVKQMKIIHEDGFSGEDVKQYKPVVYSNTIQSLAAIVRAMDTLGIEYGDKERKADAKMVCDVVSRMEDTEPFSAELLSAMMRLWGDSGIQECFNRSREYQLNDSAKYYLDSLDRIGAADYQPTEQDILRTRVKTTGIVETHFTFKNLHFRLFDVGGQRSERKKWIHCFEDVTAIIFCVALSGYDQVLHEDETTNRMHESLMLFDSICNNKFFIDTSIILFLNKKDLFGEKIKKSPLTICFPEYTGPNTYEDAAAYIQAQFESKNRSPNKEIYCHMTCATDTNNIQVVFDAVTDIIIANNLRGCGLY
PKD1 kinase inh: inhibitors of human PKD1 kinase | AID 797 | PKD1 kinase fluorescence polarization assay | 0.056% of 200,000 active | inhibition, %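 (about 10 µM by stock and volumes)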;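 active = inhibition of 50% or more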;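 note: controls were vehicle for no effect and a reference inhibitor for full effect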
INS promoter inh: TRM-6 insulin promoter activity inhibition; TRM-6 cells (human fetal islet line), insulin promoter-eGFP reporter, imaging; reporter expression induced with tamoxifen; inhibition, % at 2 µM; 0.9% of 130,000 active;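 active = inhibition above the mean plus 3 SD, with well images judged a real hit on visual review, cut at about 60% in these data, passing the limit was not always enough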
HSV replic up: increases HSV replication in cells; HSV replication augmentation in cells, fold increase; 0.005% of 220,000 active; maximum fold increase; AID 1956;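 active = peak rise of 1.5-fold or more in the series; tested in PC3 cells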;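 note: first round at 10 µM; read as green reporter fluorescence; hits show the peak of a series up to 25 µM; 1 = signal of infected wells without compound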
INS promoter inh cell count: also measured in INS promoter inh; calls as there; normalized cell count, %; measured here: cell count, toxicity; reference of the scale not given here;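 cells exposed to compound for 48 h; stained nuclei by imaging scaled within each plate; lower means fewer cells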
HSV replic up primary fold: also measured in HSV replic up; calls as there; fold increase; compound at 10 µM; measured here: primary screen fold increase 10 uM; tested in PC3 cells;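 GFP signal in the first replicate; 1 = infected wells without compound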
Numbers without * were called inactive.

Results for CC(C)CC(NC(=O)C1CCC(C)CC1)C(=O)Nc1cccnc1 (stereo not drawn) ?
GALR2 agonist: -2.1; RGS16-Gao: 98; PKD1 kinase inh: -5; INS promoter inh: -23; HSV replic up: inactive; INS promoter inh cell count: 71; HSV replic up primary fold: 0.8

How did Cn1c(=O)c2c(nc(CN3CCc4ccccc4C3)n2CC(=O)c2ccccc2)n(C)c1=O do in these assays?
GALR2 agonist: 0.6; PKD1 kinase inh: 9; INS promoter inh: 11; HSV replic up: inactive; INS promoter inh cell count: 107; HSV replic up primary fold: 0.85

How did CC(=O)c1cccc(NC(=O)N2CCCC2C(=O)NCc2ccc(C)cc2)c1 (stereo not drawn) do in these assays?
GALR2 agonist: 1.3; RGS16-Gao: 105; PKD1 kinase inh: 6; INS promoter inh: -34; HSV replic up: inactive; INS promoter inh cell count: 83; HSV replic up primary fold: 1

Results for Cc1ccc(-c2nnc(SCC(=O)Nc3ccc4c(c3)OCCO4)n2N)cc1 ?
GALR2 agonist: -1.6; RGS16-Gao: 105; PKD1 kinase inh: -21; HSV replic up: inactive; HSV replic up primary fold: 0.9

Results for CN1CCC(N(C)CC(O)c2ccccc2)CC1 (stereo not drawn) ?
RGS16-Gao: 109; PKD1 kinase inh: 4; INS promoter inh: -38; HSV replic up: inactive; INS promoter inh cell count: 133; HSV replic up primary fold: 1.1

What do the screens show for `C/C(CC(=O)NC1CCCCC1)=N\NC(=O)COc1ccc(C)cc1Br`?
RGS16-Gao: 93; PKD1 kinase inh: -2; HSV replic up: inactive; HSV replic up primary fold: 1.1

How did COc1ccc(C2N(c3ccc4c(c3)OCCO4)C(=O)C2(F)F)cc1OC (stereo not drawn) do in these assays?
RGS16-Gao: 96; HSV replic up: inactive; HSV replic up primary fold: 0.85

What do the screens show for `O=C(CSc1ccc2nnc(-c3ccccc3)n2n1)N1CCCc2ccccc21`?
GALR2 agonist: -1.1; RGS16-Gao: 413; PKD1 kinase inh: 5; INS promoter inh: -13; HSV replic up: inactive; INS promoter inh cell count: 65; HSV replic up primary fold: 0.95

Results for CN1CCN(C(=O)c2cnn3c2NC(c2ccccc2)CC3C(F)(F)F)CC1 (stereo not drawn) ?
RGS16-Gao: 91; PKD1 kinase inh: -7; HSV replic up: inactive; HSV replic up primary fold: 0.92

Results for CCSc1nc2ccccc2n1CC(N)=O ?
GALR2 agonist: -0.5; RGS16-Gao: 99; PKD1 kinase inh: -10; INS promoter inh: 33; HSV replic up: inactive; INS promoter inh cell count: 144; HSV replic up primary fold: 1.2

Results for Cc1occc1C(=O)NCc1ccccc1 ?
GALR2 agonist: -1.5; RGS16-Gao: 97; PKD1 kinase inh: -7; INS promoter inh: 22; HSV replic up: inactive; INS promoter inh cell count: 78; HSV replic up primary fold: 0.83

How did O=[N+]([O-])c1ccc(-c2cn(-c3ccccc3F)c(=S)[nH]2)cc1 do in these assays?
RGS16-Gao: 93; PKD1 kinase inh: 0; HSV replic up: inactive; HSV replic up primary fold: 0.9

Results for Cc1ccc(S(=O)(=O)N/N=C\c2cc3c(cc2[N+](=O)[O-])OCO3)cc1 ?
GALR2 agonist: -3.0; RGS16-Gao: 101; PKD1 kinase inh: -11; INS promoter inh: 8; HSV replic up: inactive; INS promoter inh cell count: 60; HSV replic up primary fold: 0.85

Results for CC(=O)NC1=NC(=O)/C(=C/N2CCOCC2)S1 ?
GALR2 agonist: -3.2; RGS16-Gao: 96; PKD1 kinase inh: -3; INS promoter inh: -21; HSV replic up: inactive; INS promoter inh cell count: 113; HSV replic up primary fold: 0.98

How did C/C(CC(=O)N1CCN(C=O)CC1)=N\NC(=O)c1ccc(Cl)cc1 do in these assays?
RGS16-Gao: 102; PKD1 kinase inh: -5; HSV replic up: inactive; HSV replic up primary fold: 0.96

Results for C/C=C(/C)C(=O)Nc1cccc(C2=NOC3(C2)C[C@H](C(N)=O)N(C(=O)Cc2ccc([N+](=O)[O-])cc2)C3)c1 (stereo partly drawn) ?
RGS16-Gao: 100; HSV replic up: inactive; HSV replic up primary fold: 0.88

Results for Cn1ncc(Br)c1C(=O)N1CCN(C(=O)c2ccco2)CC1 ?
GALR2 agonist: -0.8; RGS16-Gao: 126; PKD1 kinase inh: 0; INS promoter inh: 0; HSV replic up: inactive; INS promoter inh cell count: 192; HSV replic up primary fold: 1

How did Cc1ccc(OCC(=O)Nc2ccc3c(c2)CCC3)c([N+](=O)[O-])n1 do in these assays?
RGS16-Gao: 112; PKD1 kinase inh: -4; INS promoter inh: 27; HSV replic up: inactive; INS promoter inh cell count: 76; HSV replic up primary fold: 0.85

How did Oc1ccccc1-c1nnc(COc2ccc(Cl)cc2Cl)o1 do in these assays?
GALR2 agonist: -1.2; RGS16-Gao: 72; PKD1 kinase inh: 5; HSV replic up: inactive; HSV replic up primary fold: 0.89

Results for Cc1ccc(NC(=O)NCc2ccc3c(c2)OCO3)c(C)c1 ?
RGS16-Gao: 100; PKD1 kinase inh: -2; INS promoter inh: -13; HSV replic up: inactive; INS promoter inh cell count: 117; HSV replic up primary fold: 0.92

Results for CC1Cc2ccccc2N1C(=O)COc1ccc2c(c1)OCO2 (stereo not drawn) ?
RGS16-Gao: 101; PKD1 kinase inh: 3; HSV replic up: inactive; HSV replic up primary fold: 1

Results for O=C(NCc1ccccc1)C1=C[C@H](c2ccc(Br)cc2)C[C@H](OCc2ccc(CO)cc2)O1 ?
RGS16-Gao: 103; PKD1 kinase inh: 2; HSV replic up: inactive; HSV replic up primary fold: 1.1

What do the screens show for `Cc1ccc(S(=O)(=O)c2cc(N3CCOCC3)nc(-c3ccccc3)n2)cc1`?
GALR2 agonist: -2.5; RGS16-Gao: 99; PKD1 kinase inh: -5

How did S=C(NCCN1CCOCC1)N/N=C/c1c2ccccc2cc2ccccc12 do in these assays?
GALR2 agonist: 1.1; RGS16-Gao: 100; PKD1 kinase inh: 0; INS promoter inh: -3; HSV replic up: inactive; INS promoter inh cell count: 81; HSV replic up primary fold: 1

Results for O=c1cc(-c2ccccc2Cl)oc2cccc(O)c12 ?
GALR2 agonist: -1.2; RGS16-Gao: 107; PKD1 kinase inh: 3; INS promoter inh: 36; HSV replic up: inactive; INS promoter inh cell count: 79; HSV replic up primary fold: 0.88

How did CCN1CCN(S(=O)(=O)c2ccc(OC)c(Br)c2)CC1 do in these assays?
GALR2 agonist: -1.4; RGS16-Gao: 107; PKD1 kinase inh: -15; INS promoter inh: 26; HSV replic up: inactive; INS promoter inh cell count: 67; HSV replic up primary fold: 0.92

Results for Cc1cccc(NC(=O)Nc2ccc([N+](=O)[O-])cc2)n1 ?
RGS16-Gao: 104; PKD1 kinase inh: -2; HSV replic up: inactive; HSV replic up primary fold: 0.81

Results for CCCCNCC1C(Oc2ccc(Cl)cc2)C(=O)N1c1ccccc1C (stereo not drawn) ?
RGS16-Gao: 104; PKD1 kinase inh: 5; INS promoter inh: -75; HSV replic up: inactive; INS promoter inh cell count: 147; HSV replic up primary fold: 0.87

How did N#CCc1c(C#N)c(N)nc(N2CCN(c3ccc(F)cc3)CC2)c1C#N do in these assays?
GALR2 agonist: -0.2; RGS16-Gao: 96; PKD1 kinase inh: -2; INS promoter inh: 0; HSV replic up: inactive; INS promoter inh cell count: 132; HSV replic up primary fold: 0.87

Results for O=C(Nc1cccnc1)c1cnc2ccccc2n1 ?
GALR2 agonist: -3.3; RGS16-Gao: 107; PKD1 kinase inh: -5; INS promoter inh: 28; HSV replic up: inactive; INS promoter inh cell count: 156; HSV replic up primary fold: 0.78

Structures above containing an aryl methoxy group:
How did COc1ccc(C2N(c3ccc4c(c3)OCCO4)C(=O)C2(F)F)cc1OC (stereo not drawn) do in these assays?
RGS16-Gao: 96; HSV replic up: inactive; HSV replic up primary fold: 0.85

How did CCN1CCN(S(=O)(=O)c2ccc(OC)c(Br)c2)CC1 do in these assays?
GALR2 agonist: -1.4; RGS16-Gao: 107; PKD1 kinase inh: -15; INS promoter inh: 26; HSV replic up: inactive; INS promoter inh cell count: 67; HSV replic up primary fold: 0.92

Further records
How did COc1ccc2c(c1)SCC/C2=C\CN1C(=O)CCC1=O do in these assays?
GALR2 agonist: -1.1; RGS16-Gao: 58; PKD1 kinase inh: 6; INS promoter inh: -40; HSV replic up: inactive; INS promoter inh cell count: 78; HSV replic up primary fold: 1.1

How did CCOC(=O)c1c(C)[nH]c(C(=O)CSc2nnc(C3CC3)n2N)c1C do in these assays?
GALR2 agonist: -1.9; RGS16-Gao: 151; PKD1 kinase inh: 3; INS promoter inh: -431; HSV replic up: inactive; INS promoter inh cell count: 63; HSV replic up primary fold: 0.86

How did O=C(CNS(=O)(=O)c1ccccc1)Nc1ccc(C(F)(F)F)cc1 do in these assays?
GALR2 agonist: -1.8; RGS16-Gao: 97; PKD1 kinase inh: -6; INS promoter inh: -22; HSV replic up: inactive; INS promoter inh cell count: 122; HSV replic up primary fold: 1.4

Results for CC(C)=CCN1CCN(Cc2cccc3nonc23)CC1CCO (stereo not drawn) ?
RGS16-Gao: 104; PKD1 kinase inh: -1; HSV replic up: inactive; HSV replic up primary fold: 0.92

How did COc1ccccc1Nc1nnc(SCC(=O)N2CCCC2=O)s1 do in these assays?
GALR2 agonist: -1.6; RGS16-Gao: 108; PKD1 kinase inh: -15; INS promoter inh: 29; HSV replic up: inactive; INS promoter inh cell count: 97; HSV replic up primary fold: 0.77

What do the screens show for `O=C(NCCc1ccccc1)c1nc2nc(-c3cccs3)cc(C(F)(F)F)n2n1`?
GALR2 agonist: 1.4; RGS16-Gao: 116; PKD1 kinase inh: 0; INS promoter inh: 38; HSV replic up: inactive; INS promoter inh cell count: 85; HSV replic up primary fold: 1.1

What do the screens show for `COCCNC(=O)C(=O)c1c(-c2ccccc2)[nH]c2ccccc12`?
RGS16-Gao: 101; PKD1 kinase inh: -8; INS promoter inh: -47; HSV replic up: inactive; INS promoter inh cell count: 108; HSV replic up primary fold: 0.85

What do the screens show for `CCN(CC)S(=O)(=O)c1ccc(C(=O)OCCNC(=O)c2cccnc2)cc1`?
GALR2 agonist: -0.3; RGS16-Gao: 105; PKD1 kinase inh: -8; INS promoter inh: -49; HSV replic up: inactive; INS promoter inh cell count: 54; HSV replic up primary fold: 0.97

What do the screens show for `Cn1nc([N+](=O)[O-])nc1Oc1ccc2ccccc2c1`?
GALR2 agonist: -2.6; RGS16-Gao: 97; PKD1 kinase inh: -8; INS promoter inh: -27; HSV replic up: inactive; INS promoter inh cell count: 91; HSV replic up primary fold: 0.81

How did CCN(CC)C1=NC=CC(c2ccccc2)=CC1C (stereo not drawn) do in these assays?
GALR2 agonist: 0.0; RGS16-Gao: 105; PKD1 kinase inh: -1; INS promoter inh: -3; HSV replic up: inactive; INS promoter inh cell count: 108; HSV replic up primary fold: 1.1

Results for O=C(COC(=O)/C=C/c1ccc(Cl)cc1)NCCN1C(=O)CSC1=O ?
RGS16-Gao: 96; PKD1 kinase inh: -3; INS promoter inh: 50; HSV replic up: inactive; INS promoter inh cell count: 108; HSV replic up primary fold: 0.95

How did CC(C)c1ccc(S(=O)(=O)c2ccc(NN)cc2)cc1 do in these assays?
RGS16-Gao: 89; PKD1 kinase inh: 4; INS promoter inh: 25; HSV replic up: inactive; INS promoter inh cell count: 57; HSV replic up primary fold: 1.2

What do the screens show for `C#CCNC(=O)C1=C[C@H](c2ccccc2)C[C@H](OCCCCO)O1`?
RGS16-Gao: 94; PKD1 kinase inh: 4; HSV replic up: inactive; HSV replic up primary fold: 1.1

In the list so far, these have an NH in an aromatic ring.
How did O=[N+]([O-])c1ccc(-c2cn(-c3ccccc3F)c(=S)[nH]2)cc1 do in these assays?
RGS16-Gao: 93; PKD1 kinase inh: 0; HSV replic up: inactive; HSV replic up primary fold: 0.9

How did CCOC(=O)c1c(C)[nH]c(C(=O)CSc2nnc(C3CC3)n2N)c1C do in these assays?
GALR2 agonist: -1.9; RGS16-Gao: 151; PKD1 kinase inh: 3; INS promoter inh: -431; HSV replic up: inactive; INS promoter inh cell count: 63; HSV replic up primary fold: 0.86

What do the screens show for `COCCNC(=O)C(=O)c1c(-c2ccccc2)[nH]c2ccccc12`?
RGS16-Gao: 101; PKD1 kinase inh: -8; INS promoter inh: -47; HSV replic up: inactive; INS promoter inh cell count: 108; HSV replic up primary fold: 0.85

From PubChem
